HSD17B inhib = HSD17B dehydrogenase inhibition; recombinant HSD17B10, NADH fluorescence kinetic; many of its hits are not listed in these tables; Potency, µM (doses to about 57.1 µM), for the others: at the highest dose activity change, negative = inhibition, most hits filed as inhibitors; hit rate 7.6% among 75,000; AID 893; active = well fitted inhibition curve with a large enough effect; inconclusive = small, poorly fitted or top-dose-only effect; inactive = no such curve, though single readings can be large or run the other way;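 note: the protocol describes HADH2 (HSD17B10) and not the HSD17B4 of the title; nearly all actives have a fitted effect of over 70% in size; most hits overshoot -100% by far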
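Enzyme plus compound, 15 min room temperature; substrate mix added (NAD+ 1 mM, beta-hydroxybutyryl-CoA 90 uM final); plates read kinetically for NADH fluorescence. HADH2 was His-tagged, E. coli-derived, 20 nM.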
An asterisk follows results filed as active; ? = inconclusive; [ ] = remark or other dose. % is set by controls: 0 for no effect and ±100 for the full control effect; potency is the fitted concentration of half-maximal effect. Not all compounds are listed (hit frequency here may not be typical).

smiles,HSD17B inhib
CCCCOc1cc(C)nc(NCc2ccccc2)n1,-7%
COc1cccc(-n2c(SCC(=O)NC(C)(C)C)nnc2-c2ccoc2C)c1,12%
O=C(COc1ccc(=O)n(-c2ccccc2)n1)Nc1ccccc1,6%
O=C(CCN1C(=O)c2ccccc2S1(=O)=O)NCc1ccco1,0%
Cc1ccc(N(C(=O)CNC(=O)c2ccco2)C(C(=O)NCC2CCCO2)c2ccccc2)cc1 (stereo unspecified),-3%
CSc1nnc(NC(=O)c2ccc(C)c(S(=O)(=O)N3CCOCC3)c2)s1,4%
Cc1[nH]c(=O)[nH]c(=O)c1S(=O)(=O)NCCc1ccc(S(N)(=O)=O)cc1,6%
CCOc1ccc2[nH]c(=O)c(CN(Cc3cccs3)Cc3nnnn3C(C)(C)CC)cc2c1,?
CC1(C)CC(O)C(C)(C)N1O (stereo unspecified),11%
CCOC(=O)c1ccc(NC(=O)CC2C(=O)N(c3ccc(F)cc3)C(=O)N2CCCOC)cc1 (stereo unspecified),9%
COc1ccc(CN2CC(C(=O)NCc3ccccn3)CC2=O)cc1 (stereo unspecified),19%
CCN(Cc1cc2ccc(C)cc2[nH]c1=O)C(=O)c1cccnc1,?
CCc1cc2cc3c(cc2nc1SCC(=O)Nc1cc(C)on1)OCO3,-6%
CCOC(=O)c1c(NC(C)=O)sc2c(O)cccc12,-18%
COc1ccc(N2C(=O)CSC2c2ccc3c(c2)OCO3)c(OC)c1 (stereo unspecified),11%
c1ccc(Cn2nnnc2C(c2ccccc2)N2CCN(c3nc4ccccc4s3)CC2)cc1 (stereo unspecified),0%
COc1ccc(N2CCN(Cc3cc(=O)oc4c3ccc3ccccc34)CC2)cc1,4%
O=C(Oc1cccc2c(=O)[nH]ccc12)c1ccccc1,122%[activator]
O=C(Cc1ccccc1)N1CCC(c2nc3ccccc3[nH]2)CC1,1%
CC1Cc2ccccc2N1C(=O)CSc1nnnn1Cc1ccccc1 (stereo unspecified),-1%
Cc1csc(NC(=O)CCc2nc3ccccc3s2)n1,-20%
COc1ccc2oc(=N)c(C(=O)Nc3ccccc3)cc2c1,?
CCc1c(C)[nH]c2c1C(=O)[C@H](CN1CCOCC1)CC2,6%[25.6 µM]
Cn1c(C(=O)N2CCCCCC2)cc2c(=O)n(C)c3ccccc3c21,2%
COc1cccc2cc(-c3nnc(SCC(=O)Nc4cc(C(F)(F)F)ccc4Cl)n3N)oc12,-6%
Cc1ccc(S(=O)(=O)N2CCN(C3CC(=O)N(Cc4ccccc4)C3=O)CC2)cc1C (stereo unspecified),-5%
CC(NS(=O)(=O)c1ccc(Br)cc1)C(N)=O (stereo unspecified),0%
CC(=O)c1cccc(NC(=O)NCc2cccnc2)c1,1%
Cc1c(Cl)cccc1NC(=O)c1cc(-c2ccc(O)cc2)on1,-4%
COc1ccccc1CCC(=O)Nc1nc2ccccc2[nH]1,16%
Cn1c(COc2ccccc2)nnc1SCCC(=O)Nc1ccccc1,-7%
CCCn1nnnc1NCc1ccccc1OCc1ccc(F)cc1,-3%

Two entries from above, with each value named.
COc1cccc2cc(-c3nnc(SCC(=O)Nc4cc(C(F)(F)F)ccc4Cl)n3N)oc12
  HSD17B inhib = -6%

Cc1ccc(S(=O)(=O)N2CCN(C3CC(=O)N(Cc4ccccc4)C3=O)CC2)cc1C (stereo unspecified)
  HSD17B inhib = -5%

(continued)
smiles,HSD17B inhib
COc1cccc(C(=O)NCCC2=CCCCC2)c1OC,-4%
O=C(c1ccc(S(=O)(=O)Nc2ccccc2)cc1)N1CCOCC1,4%
CCC(=O)OC1CCC2C3CCc4cc(O)ccc4C3CC[C@]12C (stereo partly specified),-8%
OCCNc1nc(OCC(F)(F)F)nc(N2CCN(C34CC5CC(CC(C5)C3)C4)CC2)n1,4%
c1ccc(NCCCNc2ccccc2)cc1,-9%
Cc1n[nH]c(C)c1S(=O)(=O)N1CCCC(C(=O)NC2CCCCC2)C1 (stereo unspecified),-3%
COc1ccc(C(=O)Nc2c(N)nc(SCC(=O)N3CCC(C)CC3)[nH]c2=O)cc1OC,-27%
Cc1cccc(NC(=O)Nc2ccc(C#N)cc2)n1,-5%
CCC(Sc1ncccc1C(=O)OCCN1CCCC1=O)C(=O)NCc1ccco1 (stereo unspecified),-6%
O=C1N(c2ccccc2)C2CS(=O)(=O)CC2N1c1ccc(Cl)c(Cl)c1 (stereo unspecified),4%
CC(C)(C)OC(=O)NCCc1nnc(SCc2ccccc2Cl)o1,4%
CC(C)=CCC/C(C)=C/CO/N=C1/[C@H]2O[C@@H]2[C@@H](O)[C@H]2[C@H]1CCn1c(=O)n(Cc3cc4c(cc3Cl)OCO4)c(=O)n12,-3%[11.4 µM]
CCCCn1c(CCNC(=O)CCC)nc2ccccc21,4%
Cc1cc(C)c2[nH]c(=O)c(=O)[nH]c2c1,?
CCC1=C2CC[C@H]3C(=O)N(c4ccccc4)C(=O)[C@H]3[C@H]2[C@@]2(C)C(=NCC3CC3)OC(=O)N2C1=O,3%
CC(=O)Nc1ccc(S(=O)(=O)N(Cc2ccco2)CC2CCCO2)cc1 (stereo unspecified),2%
CC(=O)Nc1ccc(S(=O)(=O)Nc2nc3c(s2)CCCC3)cc1,-6%
c1ccc(Oc2ccccc2)cc1,1%
COc1cc(/C=C/C2=NC(=O)C(C)(C)O2)ccc1O,0%
Cn1c(SCC(=O)N2CCCC2)nc2ccccc2c1=O,2%
Cc1ccc(Cn2ccc(NC(=O)c3cc(CC(C)C)on3)n2)cc1,-6%
O=C(CS(=O)(=O)Cc1ccccc1)Nc1ccccn1,-10%
FC(F)(F)c1ccccc1-c1nc(NCc2cccs2)c2ccccc2n1,0%
Cc1ccc(NC(=O)Cn2c(=O)n(CCCC(=O)NCc3ccco3)c(=O)c3ccccc32)cc1,7%
CCc1ccc(N2CC(C)Cn3c2nc2c3c(=O)n(CCN3CCOCC3)c(=O)n2C)cc1 (stereo unspecified),9%
O=C(Oc1ccccc1)N1CCC2(CC1)CCN(c1ncccn1)CC2,-2%
CCOc1ccc(-c2nc(-c3ccncc3)no2)cc1OCC,4%
Cc1nc(C)c(C(=O)C2=C(O)C(=O)N(CCN(C)C)C2c2ccccc2)s1 (stereo unspecified),-11%
COc1cc(N(C)C)c(NC(C)=O)cc1C(=O)O,4%
CCOc1ccc(NC(=O)c2nnn(CC(=O)Nc3ccccc3OCC)c2N)cc1,?
N#Cc1nc(COc2ccc(F)cc2)oc1N1CCC(Cc2ccccc2)CC1,-3%
COc1ccc(S(=O)(=O)N[C@H](C(=O)O)C(C)C)cc1,-1%
COc1ccc2c3c(ccc2c1)N[C@H](C(=O)O)CC3,3.2µM*
Cc1ccc(S(=O)(=O)C2(C(=O)N3CCCCC3C)CC2)cc1 (stereo unspecified),-1%
COc1ccc(CCNC(=O)c2cnn3cccnc23)cc1OC,-6%
CCOC(=O)c1ccc(N(CC(=O)NC2CCCC2)C(=O)CNC(=O)c2ccco2)cc1,-1%
COC(=O)c1cccc(NC(=O)CSc2nc3cccnc3n2C)c1,3%
CC(C)CC1(C(=O)O)NC(c2ccccc2O)C2C(=O)N(C(C)C)C(=O)C21 (stereo unspecified),0%
Clc1cccc(OCCN2CCOCC2)c1,4%
O=C(CS(=O)(=O)c1c[nH]c2ccccc12)Nc1ccc2c(c1)OCCO2,-4%
O=C(c1cc2nc(-c3ccc(F)cc3)cc(C(F)(F)F)n2n1)N1CCOCC1,-8%
O=C(NCc1ccccn1)C(F)(F)C(F)(F)C(=O)NCc1ccccn1,11%
COc1cccc(C2=NOC(C(=O)N3CCN(c4ccccc4)CC3)C2)c1OC (stereo unspecified),1%
CC(C)=CCC/C(C)=C/CC/C(C)=C/CC/C(C)=C/CC/C(C)=C/CC/C(C)=C/CC/C(C)=C/CC/C(C)=C/CC/C(C)=C/CO,2%
Cn1nnnc1SCc1ccccc1F,11%
Cc1cc(C)c(S(=O)(=O)N(CC(=O)N2CCCC2)C2CCCCC2)c(C)c1,-1%
CCOC(=O)c1ccc(-n2ncc(C(=O)OCC)c2N)cc1,-3%
CCN(CC)S(=O)(=O)c1ccc(Cl)c(C(=O)OC)c1,2%
CO[C@H]1COC(=O)[C@@H](C)COC(=O)[C@H](C)NC(=O)C/C=C\[C@H]1C,0%[11.4 µM]
COCCn1c(Cc2ccccc2)nnc1SCC(=O)Nc1cc(C)on1,4%
COc1cc(-c2nnc(SCC(=O)N(Cc3ccccc3)C(C)(C)C)o2)cc(OC)c1OC,-5%
Cc1[nH]c2ccccc2c1C(=O)COC(=O)C1CC(=O)N(Cc2ccco2)C1 (stereo unspecified),-9%
CCCn1c(SCC(=O)Nc2cccc(C(=O)OCC)c2)nnc1-c1ccoc1C,-7%
CCn1c(CNC(=O)Cc2ccc(OC)cc2)nnc1SCC(=O)Nc1nccs1,2%
CC1CCc2ccc(F)cc2N1S(=O)(=O)c1cccs1 (stereo unspecified),-3%
O=C(NC1CCCC1)NS(=O)(=O)c1ccccc1Cl,-2%

More entries
smiles,HSD17B inhib
COc1ccc(C(=O)OCCN2C(=O)c3ccccc3C2=O)cc1OC,-3%
COCC(=O)N1CCC2(CCN(Cc3nccs3)CC2)CC1,1%
COc1ccc(OC)c(S(=O)(=O)N(C)CC(=O)N2CCN(c3ccccc3F)CC2)c1,8%
CN(C)c1ncc2nc(CCc3ccccc3)c(=O)n(C[C@H]3CCCO3)c2n1,32µM*
CCC(C)NC(=O)C1CCN(S(=O)(=O)N2CCCC2)CC1 (stereo unspecified),6%
CCn1c(SCC(=O)c2cc(OC)ccc2OC)nc2c1c(=O)n(C)c(=O)n2C,-1%
Cc1ccc(-c2c(C)n([O-])c3c([n+]2=O)CCCCC3)o1,10%
c1nc(N2CCNCC2)c2cc(-c3ccoc3)ccc2n1,?
CCN(c1ccccc1)S(=O)(=O)c1ccc(OCc2c(C)noc2C)cc1,2%
COc1ccc(CSCCN)cc1Cl,10%
N#CCSCC(=O)Nc1ccccc1,6%
CCOC(=O)c1c(CC(C)C)csc1NC=O,-7%
CSCCC(NC(=O)c1cc(C(C)(C)C)oc1C)C(=O)O (stereo unspecified),4%
CN(Cc1ccccc1)Cc1nc2c(c(=O)n(C)c(=O)n2C)n1Cc1ccc(Cl)cc1,5%
COc1ccc(OC)c(NC(=O)c2cc3n(n2)C(C(F)(F)F)CC(c2ccc4c(c2)OCO4)N3)c1 (stereo unspecified),?
O=C(Nc1ccc(N2CCOCC2)cc1)C1CCCN(S(=O)(=O)c2ccccc2)C1 (stereo unspecified),-4%

In another format: entries from further up.
> c1nc(N2CCNCC2)c2cc(-c3ccoc3)ccc2n1
  HSD17B inhib: ?

> CCN(c1ccccc1)S(=O)(=O)c1ccc(OCc2c(C)noc2C)cc1
  HSD17B inhib: 2%

> COc1ccc(CSCCN)cc1Cl
  HSD17B inhib: 10%

> N#CCSCC(=O)Nc1ccccc1
  HSD17B inhib: 6%

Look-ups from above.
For HSD17B inhib, `CSCCC(NC(=O)c1cc(C(C)(C)C)oc1C)C(=O)O` (stereo unspecified) is entered as 4%
For HSD17B inhib, `CO[C@H]1COC(=O)[C@@H](C)COC(=O)[C@H](C)NC(=O)C/C=C\[C@H]1C` is entered as 0%[11.4 µM]

New compounds follow:
smiles,HSD17B inhib
CC(=O)N(C)c1ccc(NC(=O)c2cnn(C)c2)cc1,7%
CN(C)CCSS(=O)(=O)O,8%[11.4 µM]
CC(OC(=O)c1ccco1)C(=O)NC1CCCCC1 (stereo unspecified),7%
CC(=O)CSc1ncnc2c1oc1ccccc12,-4%
CCOC(=O)C1CCN(C(=O)C2CCN(S(=O)(=O)N3CCCC3)CC2)CC1,-3%
CCN(CC)c1nc2nonc2nc1N(CC)CC,1%
O=S(=O)(c1cccs1)N1CN(Cc2cccs2)c2nc3ccccc3nc21,-4%
Cn1c(=O)c2c(SCc3cccnc3)nc(CC(C)(C)C)nc2n(C)c1=O,-6%
O=C(NCc1ccco1)c1ccc(Br)c(S(=O)(=O)N2CCCCC2)c1,-2%
CC(=O)CCc1c(C)c2cccc(C)c2[nH]c1=O,-18%
Cc1cc(C)cc(NC(=O)CN(C)S(=O)(=O)c2cnc[nH]2)c1,-4%
C=C(C)c1cccc(C(C)(C)NC(=O)N2CCN(C)CC2)c1,2%
O=S(=O)(NCCOCCNS(=O)(=O)c1ccccc1)c1ccccc1,6%
COC(=O)Cn1c(C(=O)N2CCCC2)cc2c1C[C@H]1CN(C(=O)c3ccccc3)[C@@](Cc3ccc(F)cc3)(C(=O)OC)[C@@H]21,-3%
CCOc1ccc2nc(NC(=O)C(NS(=O)(=O)c3cccs3)C(C)C)sc2c1 (stereo unspecified),-8%
O=C(Nc1ccc(Cl)cc1C(=O)Nc1ccc(Br)cn1)c1ccco1,?
Cc1ccccc1NC(=O)C(C#N)Cc1cccnc1 (stereo unspecified),9%
Cc1cc(C)n2cc(CSc3nnc(N)s3)nc2n1,?
CSCCC(=O)Nc1ccc(C(C)=O)cc1,-6%

Assay outcomes (PubChem)
